High-throughput results from PubChem.
Rango release inh: inhibition of RanGTP-driven Rango-importin beta dissociation. Potency, µM (series often up to 46.1 µM), without a hit: at the highest dose activity change, negative = inhibition. 340,000 compounds, 0.071% hits. Biochemical FRET Rango-importin beta, RanGTP-induced dissociation. AID 540253. O95149+P62826; active means falling FRET ratio curve, often poorly fitted, with flat reads before Ran was added; inconclusive means other falling curves, or compound fluorescence or quenching; inactive means flat or rising ratio curve;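 further: potency means the concentration at half of the fitted maximal effect; % of control where 0% means no effect; nearly all actives have a fitted effect of over 45% in size; -100% = wells without RanGTP and RCC1; the record marks most hits as doubtful in a second field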
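Rango/importin beta premix (0.1/0.25 uM final), PBS + 1 mM DTT + 0.02% Tween-20 + 0.1% BSA; cpd 5 min RT; FRET pre-read; + RanGTP-RCC1 (0.6 uM Ran, 2 mM GTP, 0.2 uM RCC1); 45 min RT; FRET post-read, ex 430, em 486/530 nm.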
GLA inh pH 4.5: inhibitors of human alpha-galactosidase A at pH 4.5; purified enzyme, 4-MU-alpha-Gal fluorescence, pH 4.5; activity change, negative = inhibition, % at 105 µM; AID 1467; P06280; 230,000 tested, under 10 active; inconclusive = small, poorly fitted or top-dose-only inhibition, or a rising curve; inactive = flat fitted curve, though single readings scatter; no compound was filed as active;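 further: 0% = full activity with enzyme and -100% = basal without enzyme; dose as in the result columns while the protocol names 77 µM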
miR-21 reporter: miR-21 reporter, rising signal. HeLa miR-21 FLuc reporter, luciferase, 48 h. Potency, µM (series often up to 38.3 µM), without a hit: top-dose reporter change, positive = more light. 340,000 tested, under 10 active. AID 2288; active = well fitted rising curve with a large enough effect; inconclusive = small, poorly fitted or top-dose-only effect; inactive = no such curve, though single readings can be large or run the other way;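 further: % of control where 0% means no effect; miR-21 action dims this reporter so a rising signal means less miR-21 action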
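Using DMEM plus 10% FBS, HeLa miR-21-FLuc cells are incubated with test compounds (final up to about 40uM) for 48 hours; firefly luciferase signal is then imaged following reagent-mediated lysis.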
Rango complex inh: Rango-importin beta binding inhibition; Rango CFP/YFP FRET sensor + importin beta, 45 min; Potency, µM (doses to about 92.2 µM), without a hit: top-dose inhibition of complex formation; 340,000 compounds, 0.031% hits; AID 540263; active = rising FRET ratio curve, often small or poorly fitted; inconclusive = mostly compound fluorescence or quenching in the first reads; inactive = flat curves in all reads;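 further: potency means the concentration at half of the fitted maximal effect; 0% = DMSO wells and 100% = buffer wells lacking importin beta; nearly all actives have a fitted effect of over 15% in size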
Target sequence (Q14974 whole entry, looked up): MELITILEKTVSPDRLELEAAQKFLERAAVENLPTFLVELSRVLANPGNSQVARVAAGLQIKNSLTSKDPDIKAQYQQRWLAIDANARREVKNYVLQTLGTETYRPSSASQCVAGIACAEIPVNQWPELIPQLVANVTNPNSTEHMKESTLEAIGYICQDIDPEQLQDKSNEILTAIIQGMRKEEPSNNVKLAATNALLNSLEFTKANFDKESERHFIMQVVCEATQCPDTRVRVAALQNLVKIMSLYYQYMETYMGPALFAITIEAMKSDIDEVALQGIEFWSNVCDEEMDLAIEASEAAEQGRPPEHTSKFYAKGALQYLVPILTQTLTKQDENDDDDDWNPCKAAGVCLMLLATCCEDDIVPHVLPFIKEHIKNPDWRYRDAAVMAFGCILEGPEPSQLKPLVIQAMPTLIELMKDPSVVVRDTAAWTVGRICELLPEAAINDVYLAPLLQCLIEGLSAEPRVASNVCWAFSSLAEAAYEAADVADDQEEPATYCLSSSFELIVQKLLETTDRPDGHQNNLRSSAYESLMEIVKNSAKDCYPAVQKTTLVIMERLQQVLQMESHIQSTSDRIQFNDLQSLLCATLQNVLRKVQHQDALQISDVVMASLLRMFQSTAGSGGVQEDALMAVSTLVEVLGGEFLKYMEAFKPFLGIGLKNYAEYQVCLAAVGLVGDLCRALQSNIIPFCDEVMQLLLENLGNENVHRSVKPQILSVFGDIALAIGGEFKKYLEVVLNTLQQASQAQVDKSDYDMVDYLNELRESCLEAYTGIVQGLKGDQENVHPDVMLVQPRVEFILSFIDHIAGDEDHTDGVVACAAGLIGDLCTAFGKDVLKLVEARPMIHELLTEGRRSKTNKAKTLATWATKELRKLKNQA
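FRET biosensor Rango (snurportin 1 IBB between N-terminal EYFP and C-terminal Cerulean), 50 nM in PBS/1 mM DTT/0.02% Tween-20/0.1% BSA, preincubated 5 min RT with compound; 0.125 microM importin beta added, 45 min RT, CFP/YFP FRET ratio read.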
* = called active by the depositor; ? = inconclusive; . = not tested or not shown. A portion of the library, so the mix of outcomes need not match the whole.

Values run as follows: GLA inh pH 4.5	Rango release inh	Rango complex inh	miR-21 reporter
Cc1ccc(-c2nc(-c3ccccn3)no2)cc1
→ 5	?	-0.8%	?
Cc1c(Cl)cccc1NC(=S)NCC(O)c1ccccc1 (configuration not stated)
→ .	8%	2.7%	3%
CCCc1cc(C(=O)Nc2cccc([N+](=O)[O-])c2)cs1
→ .	-9%	3.7%	-19%
O=C(N/N=C/c1ccncc1)C1CC1C(=O)N/N=C/c1ccncc1 (configuration not stated)
→ -4	9%	4.3%	4%
CC(C(=O)N1CCCCC1)N(C)CC(=O)Nc1cccc(F)c1 (configuration not stated)
→ .	1%	3.3%	.
CC(C)C(NS(=O)(=O)c1ccc2c(c1)oc(=O)n2C)C(=O)N1CCN(c2ccccc2F)CC1 (configuration not stated)
→ -4	-22%	2.5%	-3%
Cc1ccc2nsnc2c1NC(=O)c1ccc([N+](=O)[O-])o1
→ .	1%	-3.2%	17%
COc1ccc(CCNC(=O)c2c[nH]c3ccccc3c2=O)cc1OC
→ -12	15%	0.1%	13%
COc1ccc(OC)c(NS(=O)(=O)c2c(C)nc3sccn3c2=O)c1
→ .	5%	?	-1%
O=C(COc1ccc(F)cc1)OCCN1CCOCC1
→ .	-21%	-0.1%	-4%
CC(=O)OCC(=O)[C@@]1(O)CC[C@H]2[C@@H]3CCC4=CC(=O)C=C[C@]4(C)[C@H]3C(=O)C[C@@]21C
→ .	0%	1.8%	-9%
Cc1ccc(Oc2ccc(S(=O)(=O)N3CCOCC3)cc2C(N)=O)cc1C
→ .	8%	3.0%	-1%
CCc1cc(=O)oc2cc(C)cc(OCC(=O)NC(Cc3c[nH]c4ccc(O)cc34)C(=O)O)c12 (configuration not stated)
→ .	9%	-3.3%	2%
Cc1ccc(C2=N/C(=C/c3cccs3)C(=O)N2Nc2ccccc2)cc1
→ -10	?	?	-1%
Cc1ccc(NC(=O)CCC(=O)N/N=C/c2cccnc2)cc1
→ .	-2%	-2.8%	0%

An excerpt of these results, in CSV form.
smiles,GLA inh pH 4.5,Rango release inh,Rango complex inh,miR-21 reporter
Cc1c(Cl)cccc1NC(=S)NCC(O)c1ccccc1 (configuration not stated),.,8%,2.7%,3%
CCCc1cc(C(=O)Nc2cccc([N+](=O)[O-])c2)cs1,.,-9%,3.7%,-19%

Later entries:
Values run as follows: GLA inh pH 4.5	Rango release inh	Rango complex inh	miR-21 reporter
CCc1cccc(CC)c1NC(=O)COC(=O)CC1c2ccccc2CCN1S(=O)(=O)c1ccc(F)cc1 (configuration not stated)
→ -22	-5%	-1.4%	8%
CC1CC(=O)c2ccccc2C1C (configuration not stated)
→ .	0%	-0.7%	.
O=C(CCN1C(=O)COc2ccccc21)NCCCN1CCN(c2ccccc2F)CC1
→ 0	-14%	-2.8%	-5%
O=C(Nc1nccc(-c2cccs2)n1)c1cccs1
→ -6	-17%	0.2%	-8%
Cc1sc2nc(C)n(/N=C/c3ccc(O)cc3O)c(=O)c2c1C
→ -6	-14%	-0.3%	0%
C[C@H](CO)N1C[C@H](C)[C@@H](CN(C)Cc2ccc(-c3ccccc3)cc2)Oc2c(NS(=O)(=O)c3ccc(F)cc3)cccc2C1=O
→ .	1%	5.6%	.
Cc1ccc2cccc(Oc3nnnn3-c3ccccc3)c2n1
→ 6	11%	-0.8%	-9%
O=C(/C=C/c1cccc([N+](=O)[O-])c1)NCC1CCCO1 (configuration not stated)
→ 3	-2%	1.4%	-5%
C=CCNC(=O)/C(=C/c1ccc(Br)cc1)NC(=O)c1ccccc1OC
→ -9	8%	6.7%	1%
CCOc1ccc(NS(=O)(=O)c2ccc(NC(=S)NC(C)=O)cc2)cc1
→ 2	-9%	0.0%	2%
N/C(=N\OC(=O)N1CCOCC1)c1ccc(Cl)cc1
→ 8	-8%	4.8%	-7%
O=C(O)CCc1ccc(-c2ccc(Br)cc2)n1Cc1ccco1
→ 1	8%	3.5%	-7%
Clc1ccc(OCc2nnc(-c3ccccc3Br)o2)cc1
→ 7	0%	-0.3%	-23%
O=C(CCC(=O)Nc1ccc(F)cc1)N/N=C/c1ccc(Br)cc1
→ .	-2%	-9.4%	-2%
CCN(CC)c1ccc(NS(=O)(=O)c2ccc(-c3ccc(=O)[nH]n3)o2)c(C)c1
→ .	-19%	-0.9%	-4%

New compounds follow.
Values run as follows: GLA inh pH 4.5	Rango release inh	Rango complex inh	miR-21 reporter
O=C(NCc1ccccc1)c1ccc2nc(N3CCOCC3)sc2c1
→ 1	1%	-0.3%	-35%
C/C(=C(\C#N)C(=O)NCCN1CCOCC1)N(C)C
→ -2	5%	4.2%	-2%
COc1ccc(NC(=O)CCN2C(=O)NC3(CCCC3)C2=O)cc1Cl
→ .	5%	2.6%	.
Cc1ccc(S(=O)(=O)N(C(=O)c2ccncc2)c2ccc3oc4c(c3c2)CCCC4)cc1[N+](=O)[O-]
→ -15	1%	-0.4%	-1%
CC(C)C[C@@H](CN1CCCC1CN1C(=S)NC[C@@H]1Cc1ccc(O)cc1)N1C[C@H](Cc2ccc(O)cc2)N(CCc2ccccc2)C1=S (some centres not stated)
→ .	0%	0.3%	.
Cc1ncc([N+](=O)[O-])n1CC(=O)NC1CCCCC1
→ -6	0%	-3.5%	-7%
Cc1c(C(=O)Nc2ccccc2)oc2c1C(=O)CC(C)(C)C2
→ -8	-11%	-0.2%	-25%
Nc1ccc(C(=O)O)cc1S(=O)(=O)O
→ -5	6%	-0.2%	-4%
Cc1cc(C(=O)Nc2cccc3c2O[C@@H](CN(C)S(C)(=O)=O)[C@H](C)CN([C@@H](C)CO)C3=O)n(C)n1
→ .	15%	-3.3%	.
COc1ccccc1NC(=O)Nc1ccc(S(=O)(=O)Nc2onc(C)c2C)cc1
→ .	-9%	0.1%	.
CCCc1nnc(NC(=O)c2cccs2)s1
→ 6	1%	0.8%	-38%
CCOc1ccccc1N1CCN(C(=O)c2cccs2)CC1
→ .	-2%	-3.4%	-3%
CCOC(=O)c1[nH]c(C(=O)O)c(CCC(=O)OC)c1C
→ -6	-3%	-2.7%	-5%
Cc1cc(C)c2c(n1)sc1c(=O)n(CC(=O)c3ccccc3)cnc12
→ -5	-2%	0.2%	1%
CC(=O)NC(C(=O)OCC(=O)N(c1ccccc1)c1ccccc1)C(C)C (configuration not stated)
→ 0	17%	-2.3%	-1%

Further entries follow:
Values run as follows: GLA inh pH 4.5	Rango release inh	Rango complex inh	miR-21 reporter
O=S(=O)(c1ccc(F)cc1)c1nc(-c2ccccc2)oc1N1CCOCC1
→ .	0%	0.4%	-2%
O=C(COC(=O)c1ccc(CNS(=O)(=O)c2ccc(F)c(Cl)c2)cc1)NC1CCCCCCC1
→ 3	-10%	-0.4%	-7%
COc1ccc(C=O)cc1COc1ccc2c(c1)OCO2
→ .	0%	-0.6%	.
CCCCSc1nc(O)c(Cc2ccccc2)c(=O)[nH]1
→ 6	0%	-2.3%	1%
Cc1cc(NC(=O)CSc2ccc3nnc(-c4cccnc4)n3n2)no1
→ -3	-10%	-0.6%	-2%
CC(OC(=O)CCC(=O)c1ccccc1)C(=O)Nc1ccc(F)cc1 (configuration not stated)
→ .	19%	-5.1%	.
Cc1cccc(C(C)C)c1NC(=O)CN(C)Cc1cccc(F)c1
→ 0	?	-4.8%	20%
CC(=O)Nc1ccccc1C(=O)C(=O)Nc1cccc(C(=O)NC2CC2)c1
→ 1	-3%	-5.7%	-56%
CCOC(=O)N1CCN(C(=O)c2ccc(C#CC3(O)CCCCC3)cc2)CC1
→ 1	0%	0.7%	-8%
O=C(Nc1ccccc1)Nc1nnc(-c2cccs2)s1
→ 16	-3%	-0.5%	-47%
COc1cc(NC(=O)c2cccs2)c(OC)cc1NC(=O)c1ccco1
→ 0	-16%	?	-3%
COC(=O)c1ccccc1NC(=O)c1cn(-c2ccc(C)c(C)c2)c(=O)c2ccccc12
→ -1	2%	0.9%	-4%
CC(=O)Nc1ccc(OCC(O)CNC(C)C)cc1 (configuration not stated)
→ .	1%	-1.4%	.
O=C(Nc1ncc(Br)s1)C(Cc1ccccc1)n1cccc1 (configuration not stated)
→ -3	6%	0.3%	21%
COc1ccc(NC(=O)CN(C)C(=O)c2cccc(-n3cccc3)c2)cc1
→ .	-1%	-1.7%	.

Among those listed so far, these contain an NH in an aromatic ring.
Values run as follows: GLA inh pH 4.5	Rango release inh	Rango complex inh	miR-21 reporter
COc1ccc(CCNC(=O)c2c[nH]c3ccccc3c2=O)cc1OC
→ -12	15%	0.1%	13%
CCc1cc(=O)oc2cc(C)cc(OCC(=O)NC(Cc3c[nH]c4ccc(O)cc34)C(=O)O)c12 (configuration not stated)
→ .	9%	-3.3%	2%
CCN(CC)c1ccc(NS(=O)(=O)c2ccc(-c3ccc(=O)[nH]n3)o2)c(C)c1
→ .	-19%	-0.9%	-4%
CCOC(=O)c1[nH]c(C(=O)O)c(CCC(=O)OC)c1C
→ -6	-3%	-2.7%	-5%
CCCCSc1nc(O)c(Cc2ccccc2)c(=O)[nH]1
→ 6	0%	-2.3%	1%

3 compounds already listed, ordered by heavy-atom count, low to high.
Values run as follows: GLA inh pH 4.5	Rango release inh	Rango complex inh	miR-21 reporter
CCCCSc1nc(O)c(Cc2ccccc2)c(=O)[nH]1
→ 6	0%	-2.3%	1%
O=C(Nc1ncc(Br)s1)C(Cc1ccccc1)n1cccc1 (configuration not stated)
→ -3	6%	0.3%	21%
COc1cc(NC(=O)c2cccs2)c(OC)cc1NC(=O)c1ccco1
→ 0	-16%	?	-3%

The listing continues:
Values run as follows: GLA inh pH 4.5	Rango release inh	Rango complex inh	miR-21 reporter
Cc1ccc(C2=Nc3ccccc3N(C(=O)c3ccccc3)C(C)C2)cc1 (configuration not stated)
→ -3	2%	3.9%	-5%
CCC1=NN2C(=N)/C(=C/c3ccc(OS(=O)(=O)c4ccccc4)c(OC)c3)C(=O)N=C2S1
→ .	-20%	?	-10%
COc1ccc(NC(=O)c2ccc(-c3nn(C)c(=O)c4ccccc34)cc2)cc1
→ 8	11%	-4.6%	3%
O=P(OC1CCS(=O)(=O)C1)(c1ccccc1)c1ccccc1 (configuration not stated)
→ 1	-8%	-2.8%	-6%
COc1ccc(C(C)=O)cc1COC(=O)CNC(=O)c1ccccc1F
→ 1	7%	-3.7%	-3%
CCn1c(SCC(=O)c2ccc(Cl)cc2)nnc1-c1cccs1
→ 7	0%	-0.4%	-20%
CCCNC(=O)Nc1cccc(C(=O)OC)c1
→ -3	-15%	-3.7%	-2%
Cc1c(NS(C)(=O)=O)cccc1-c1nc2cccnc2s1
→ -3	-2%	0.2%	-17%
CC(C)NC(=O)CN(Cc1ccc(F)cc1)C(=O)CCC(=O)Nc1ccccn1
→ .	-3%	-1.1%	-1%
CC(=O)c1ccc(NC(=O)c2ccc(CNc3c(N4CCCC4)c(=O)c3=O)cc2)cc1
→ -7	20%	5.3%	4%
CC(Sc1n[nH]c(-c2ccccc2F)n1)C(=O)Nc1ccc(S(N)(=O)=O)cc1 (configuration not stated)
→ .	1%	5.4%	.
Cc1ccnc(NC(=O)c2ccc3c(c2)C(=O)N(CC(C)C)C3=O)c1
→ .	26%	2.0%	-1%
Cc1ccc(S(=O)(=O)N2CN(Cc3ccco3)c3nc4ccccc4nc32)cc1
→ 9	?	?	-16%
COc1cc(NC(=S)NC(=O)c2ccccc2F)ccc1NC(=O)c1ccco1
→ -5	14%	-0.2%	-12%
CCCCNC(=O)c1onc(CSc2ccc(F)c(F)c2)c1C(=O)NCCCC
→ .	-1%	0.2%	.
CCCc1c(C(=O)NNc2ccc(C)cc2)cnn1-c1ccccc1
→ -9	13%	-1.7%	17%
Cc1ccc(NC(=O)Nc2cccc(F)c2)nc1
→ .	2%	6.1%	-50%
COc1ccc(C2(C)NC(=O)N(CC(=O)Nc3ccc(-c4nc5ccc(C)cc5s4)cc3)C2=O)cc1 (configuration not stated)
→ 0	24%	?	-1%
